# Biofilm kill mix: mixture kills Candida albicans biofilm cells | AID 1242 | C. albicans biofilm persisters + clotrimazole, fluorescence viability; primary screen in compound mixtures of four per well | inhibition, % at 7.6 µM | 120,000 tested, 0.02% active;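 active = inhibition above 30.3% in the primary screen of four-compound pools, then above 30% when the compound was retested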;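 note: compounds exposed to preformed 24 h biofilms for 48 h; the number belongs to the whole pool; some results filed as inactive read as strong as hits; inactives centre near 12; 0% = biofilm with clotrimazole alone and 100% = kill control; retested singly at about 60 µM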
#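 Test system: C. albicans biofilms. Buffer or medium: RPMI/MOPS medium, pH 7.0. Timing: 48 h compound exposure at 37 °C. Technique: Alamar Blue fluorescence. Evaluation: percent inhibition of biofilm viability.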
# * marks the source's active call; other numbers are inactive results. The list is partial; rates above refer to the full screens.
Compound,Biofilm kill mix
CCOC(=O)/C=c1\s/c(=C(\C#N)C(N)=O)n(-c2ccccc2)c1=O,27
CCOC(=O)c1[nH]c2cc3c(cc2c1NC(=O)CN1CCCC1)OCO3,15
O=C(CSc1nc2ccccc2[nH]1)NCc1ccc2c(c1)OCO2,20
CCOc1ccc(Br)cc1S(=O)(=O)Nc1ccc(C(=O)Nc2ccc(C)cc2)cc1,9
O=[N+]([O-])c1cc(Cl)ccc1Sc1ccccn1,0
O=C(CSc1nnc(-c2ccncc2)n1Cc1ccco1)Nc1ccccc1F,20
CCc1nnc(NC(=O)Cc2cccs2)s1,9
NS(=O)(=O)c1ccc(CCNC(=O)c2ccccc2[N+](=O)[O-])cc1,20
Cc1ccn2c(=O)nc(SCc3cccc(C(F)(F)F)c3)nc2c1,3
O=C(NCc1cccnc1)c1c(O)c2cccc3c2n(c1=O)CCC3,29
CN1C2CCC1/C(=C\c1ccc(F)cc1)C(=O)/C2=C/c1ccc(F)cc1,2
COC(=O)NNC(=O)COc1cc(C)c(Br)cc1C(C)C,18
Cc1ccc(Oc2ccc(Cl)cc2N)cc1,0
CCOc1ccc(/C=N/NC(=O)Cn2ccnc2C)cc1,14
O=C(NCc1ccc2c(c1)OCO2)c1ccc(CS(=O)(=O)Cc2cccc(Cl)c2)o1,13
CCOC(=O)c1cc(CC)sc1/N=C/c1c(O)ccc2ccccc12,-10
CC(=O)[C@H]1CC[C@H]2[C@@H]3CCC4=CC(=O)CC[C@]4(C)[C@H]3CC[C@]12C,12
COC(=O)c1ccc(N2CCN(C(=O)c3ccccc3)CC2)c(NC(C)=O)c1,19
O=C(Cc1ccc(Cl)c(Cl)c1)Nc1ccccc1N1CCOCC1,6
CC(=O)Nc1ccccc1NC(=O)c1ccc(C)cc1C,-8
COc1cc(NC(=O)c2ccc([N+](=O)[O-])o2)ccc1NC(=O)c1cccs1,10
CN1C2C=C(N(CCc3ccccc3)C(=O)c3ccc(Cl)cc3)CC1CC2 (centres undefined),19
Cc1cccnc1NC(=O)C1CCN(S(=O)(=O)c2c(C)noc2/C=C/c2ccco2)CC1,15
Cc1[nH]n(-c2ccccc2)c(=O)c1C=Nc1ccc(S(=O)(=O)NC(N)=O)cc1,15
CCOC(=O)c1cn[nH]c1NC(=S)Nc1ccccc1,15
Cc1cc(NC(=O)CSc2ccccn2)no1,13
CCOC(=O)c1ccc(NC(=O)c2nc[nH]c2C(=O)NCC(=O)OC(C)(C)C)cc1,18
CCc1cc(C(=O)NNC(=S)Nc2cccc(C)c2)cs1,-2
COc1ccc(CNc2ccccc2)cc1Br,15
Cc1ccc(-n2c(=S)[nH]c3sc4c(c3c2=O)CCC4)cc1,0
C=CCN1N=C(/C=C/c2ccc(C)cc2)CCC1=O,2
O=C(C1=NN[C@@H]2C(=O)N(c3cccc(F)c3)C(=O)[C@H]12)c1ccc2ccccc2n1,18
O=C(CCSc1nc(-c2ccco2)cc(C(F)(F)F)n1)NCCN1CCOCC1,5
N#CC1=C(N)NC(SCc2ccccc2)=C(C#N)C12CCCC2,9
N#C/C(=C/c1ccc(N2CCCCC2)cc1)c1cccc(F)c1,9
COc1ccc(C/C(N)=N/OC(=O)COc2ccccc2C)cc1,8
COc1ccccc1OCCNS(=O)(=O)c1ccc2oc3ccccc3c2c1,18
S=c1[nH]nc(COc2ccccc2)n1/N=C/c1ccncc1,4
COc1cccc(N2CCN(C(=O)CCSCc3ccccc3F)CC2)c1,21
CCOC(=O)c1c(/N=C/c2cc(C)ccc2O)sc2c1CCC2,7
CNC(=S)Nc1ccc(C(N)=O)cc1,6
NNC(=O)c1ccc(CSc2nc3ccccc3[nH]2)cc1,0
O=C(COc1ncnc2cc([N+](=O)[O-])ccc12)NC(=O)NC1CCCCC1,20
CCCc1nc2ccccc2n1CC(O)COc1ccc(NC(C)=O)cc1 (centres undefined),13
O=C(N/N=C/c1cn(-c2cccs2)nc1-c1ccccc1)c1ccc(O)cc1,16
CCCc1ncc(C(O)c2ccccc2OC)n1C (centres undefined),23
CN(C(=O)CSc1nncc2ccccc12)C1CCCCC1,4
COc1ccc(N2C(=O)C3C4C=CC(C4)C3C2=O)c([N+](=O)[O-])c1 (centres undefined),18
COCc1c(C(=O)Nc2nc(C)cs2)oc2ccccc12,16
COc1ccc(-n2c(=O)c3c4c(sc3n3c(=S)[nH]nc23)CCCC4)cc1,-12
CC1CCC2C(=O)N(c3ccccc3OC(=O)c3ccccc3F)C(=O)C2C1 (centres undefined),10
CC(C)CC(N)C(=O)OCc1ccc([N+](=O)[O-])cc1 (centres undefined),23
CC(=O)N(C)Cc1ccc(C(=O)CCl)cc1,-8
COc1ccc(C(=O)N2CCCC(C(=O)N3CCN(c4ccccc4)CC3)C2)cc1 (centres undefined),26
CCOC(=O)Nc1nnc(/C=C/c2ccc(OC)cc2)s1,19
Cc1cccc(OC(=O)c2cncc(Br)c2)c1,8

# Next part.
Compound,Biofilm kill mix
Cc1cnc(NC(=O)CSc2nnc(COc3ccccc3)o2)s1,27
O=C(COc1ccc(Cl)cc1Cl)OCC(=O)N1CCCc2ccccc21,14
Cc1ccc(/C=N/NC(=O)c2ccc3nc[nH]c3c2)s1,16
CC(C)c1nnc(NC(=O)C2CCCN2C(=O)Nc2ccccc2F)s1 (centres undefined),9
O=C(C(Cc1ccccc1)N1C(=O)c2ccccc2C1=O)N1CCc2ccccc21 (centres undefined),14
S=C(NC1CCCCC1)N1CCN(Cc2ccccc2Cl)CC1,11
COC(=O)c1ccc(N=CC2=C(O)CC(c3ccccc3)CC2=O)cc1 (centres undefined),26
CCOC(=O)C1CCN(C(=O)COc2ccc(N(C)S(=O)(=O)c3ccc(OCC)cc3)cc2)CC1,-4
O=c1c(C=NCC2CCCO2)c(-c2ccccc2)[nH]n1-c1ccc([N+](=O)[O-])cc1 (centres undefined),3
COc1cccc(CN(C(=O)Cn2nnc(-c3ccccc3F)n2)C(C(=O)NC(C)(C)C)c2ccncc2)c1 (centres undefined),13
Cc1noc(C)c1C(=O)OCC(=O)Nc1cccc(S(N)(=O)=O)c1,-23
CCOc1ccccc1C(=O)N/N=C/c1c[nH]c2ccccc12,12
O=C(NN=C1CCCC1)NC1CCCCC1,-2
O=S(=O)(NC1=NCCCCC1)c1ccc2sc(NS(=O)(=O)c3ccc4ccccc4c3)nc2c1,15
COc1ccccc1C(=O)N/C(=C/c1ccc(Br)cc1)C(=O)N1CCCC1,6
O=C(Nc1ccccc1)C1=C[C@@H](c2ccccc2)C[C@@H](OCc2ccc(CO)cc2)O1,20
CCc1ccc(C(=O)NNC(=O)OC)cc1,15
COc1ccc(CNCc2cccc(Oc3ccccc3)c2)cc1,8
S=C(NCCc1ccccc1)Nc1ccccc1N1CCOCC1,13
CCCn1c(SCC(=O)Nc2cc(S(=O)(=O)N3CCOCC3)ccc2Cl)n[nH]c1=O,8
Cc1nc(N2CCCCC2)sc1C=O,-7
CCn1c2ccccc2c2c3ncc4cccn4c3ccc21,7
Cc1ccc(NC(=O)Cn2nc(C)c(S(=O)(=O)N(C)C)c2C)cc1C,2
CCN1C(=O)/C(=C/c2nc3ccccc3c(=O)n2-c2ccc(C)cc2)c2ccccc21,-1
CCOC(=O)c1sc(=S)n(CC)c1NC(=O)c1ccccc1C,-2
CCNc1nc(NC(C)C)nc(NC(C)(C)C)n1,11
CC(=O)Cn1nnc2sc3c(c2c1=O)CCC(C(C)(C)C)C3 (centres undefined),9
Cc1c(CN2CCCC(C(=O)c3cccc(Cl)c3)C2)c(=O)n(-c2ccccc2)n1C (centres undefined),3
CC1(C)C2CCC1(C(=O)O)c1nc3ccccc3nc12 (centres undefined),22
O=C(Nc1ccc([N+](=O)[O-])cc1)C1CC12CCC2 (centres undefined),10
CO/N=C/C(=N\Nc1ccc(OC)cc1)C(=O)c1ccc(F)cc1,7
O=C(NCCN1C(=O)S/C(=C\c2cccs2)C1=O)c1ccc(=O)[nH]c1,5
Cc1ccccc1N1C(=O)C2ON(c3ccccc3)C(c3ccco3)C2C1=O (centres undefined),14
COC(=O)CCC/C=C1/SCC(NC(=O)c2ccccc2)/C1=N/O (centres undefined),14
Cc1cccc(C)c1-n1c(C)nn(-c2ncc(C(F)(F)F)cc2Cl)c1=O,5
C=CCn1cc(C(=O)N2CCc3ccccc3C2)c(=O)c2cc(S(=O)(=O)N(CC)CC)ccc21,13
O=C(Nc1ccc(O)cc1)c1cc2ccccc2c(=O)s1,29
O=C(Nc1ccc2c(c1)C(=O)NC2=O)c1ccc(S(=O)(=O)N2CCCC2)cc1,15
CC(C)n1c(=S)[nH]c2cc(C(F)(F)F)ccc21,22
COC(=O)CCC(=O)OC1(C)C(=O)C=C2C=C(C3CC3)N(Cc3ccc4c(c3)OCO4)C=C2C1=O (centres undefined),3
C[C@]12CCC3c4ccc(OCC(=O)O)cc4CCC3C1CCC2=O (some centres undefined),22
Cc1ncoc1C(=O)N1CCc2c([nH]c3ccccc23)C1C1CCCCC1 (centres undefined),8
COc1ccc(NC(=O)NCc2ccc3c(c2)OCO3)cc1,7
O=C(NCCCn1ccnc1)Nc1cccc2ccccc12,4
Cc1cc(OCC(O)CN)ccc1Cl (centres undefined),23
C/C(=N\NC(=O)CC(C)C)c1ccc(N2CCCCC2)cc1,16
CCCCCCc1cc2cc(C(=O)NCc3ccccc3)c(=N)oc2cc1O,14
N#Cc1cn(Cc2ccncc2)c(=O)[nH]c1=O,-7
Cc1ccc(S(=O)(=O)N(CC(=O)Nc2ccccc2C(=O)O)c2cccc(Cl)c2C)cc1,7
CCN(CC)c1ccc(C(=O)OCC(=O)NC(C)(C)C)cc1,10
C=C(C)C(=O)Nc1cccc(C2=NOC3(C2)C[C@@H](C(N)=O)N(C(=O)c2cc([N+](=O)[O-])cc([N+](=O)[O-])c2C)C3)c1 (some centres undefined),17
CCSc1nnc(NC(=O)CCCOc2ccc(C)cc2)s1,4
Cc1ccc(Nc2nc(N/N=C/c3c[nH]c4ccccc34)nc(N3CCOCC3)n2)cc1,20
CCN(CC)C(=N)N1c2ccccc2CCC1C (centres undefined),10
COC(=O)c1ccc(/C=C2/SC(=S)N(CCCC(=O)Nc3ccccn3)C2=O)cc1,6
O=C(Cc1nnc(NC(=O)Nc2ccc(Cl)cc2)s1)NCc1ccccc1,14

# The listing continues.
Compound,Biofilm kill mix
NCC(=O)c1cccc2ccc[n+]([O-])c12,13
Cn1c(=O)c2c(nc(SCC(=O)c3ccc(F)cc3)n2C)n(C)c1=O,30
O=C(Nc1nccs1)C1CCCCN1S(=O)(=O)c1ccccc1 (centres undefined),15
CN1C2CCC1CC(NC(=O)CSCc1ccc(Cl)cc1Cl)C2 (centres undefined),0
Cc1ccc(/C=N/NC(=O)CC2N=C(Cc3ccccc3)NNC2=O)cc1 (centres undefined),12
O=C(CCCCCN1C(=O)c2cccc3cccc(c23)C1=O)NCc1ccco1,1
N=c1sccn1CC(=O)Nc1ccc([N+](=O)[O-])cc1Cl,-7
NS(=O)(=O)c1ccc(NC(=O)COC(=O)COc2ccc(Cl)cc2)cc1,-4
OCCC1CN(CCCn2cccn2)CCN1Cc1ccccc1 (centres undefined),28
Cc1cc(C)cc(NC(=O)/C=C/c2ccc([N+](=O)[O-])s2)c1,19
Cc1ccc(S(=O)(=O)NC2c3cccc4cccc(c34)C2Sc2nc(C)cc(C)n2)cc1 (centres undefined),12
CCOC(=O)C(C)Sc1ncnc2c1c(-c1ccccc1)cn2-c1ccc(OC)cc1 (centres undefined),16
Cc1cc(OCC(=O)NC(C)C)ccc1Cl,-9
CN1CCN(c2nnc(-c3cccs3)c3ccccc23)CC1,19
O=C(c1ccco1)N1CCN(S(=O)(=O)c2cccc([N+](=O)[O-])c2)CC1,17
CC(NC(=O)Nc1ccc(F)cc1)C(c1cccs1)N1CCCC1 (centres undefined),7
Cc1ccc(C)c(OCC(=O)Nc2ccc(N3CCOCC3)cc2)c1,15
CCCCN(CC)CCCNC(=O)c1cn(CC)c2ccc(S(=O)(=O)N3CCc4ccccc4C3)cc2c1=O,4
NC1=C(Br)C(=O)c2ccccc2C1=O,14
CN(C)c1ccnc(C(=O)O)c1,14
O=C(NC(=S)Nc1ccc(N2CCOCC2)cc1)c1cncc(Br)c1,18
O=C(Nc1ccccc1)c1nsnc1C(=O)Nc1ccccc1,6
O=C(COC(=O)CNC(=O)c1ccccc1)Nc1ccc(S(=O)(=O)N2CCOCC2)cc1,12
CC(/C=C/c1ccccc1)=N\NC(=O)Cn1cncn1,2

# High-throughput results deposited in PubChem by PCMD.
